Cruzain inh Det: inhibitors of Trypanosoma cruzi cruzain with detergent; P25779; purified cruzain, Z-FR-AMC fluorescence, 0.01% Triton; Potency, µM, for the others: max response, negative = inhibition, usual class: inhibitors; 200,000 compounds, 0.43% hits; AID 1478; active means well fitted curve in the direction sought with a large enough effect; inconclusive means small, poorly fitted or top-dose-only effect, or another doubt; inactive means no such curve, though single readings can be large; an effect the other way counts as inactive or inconclusive;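 further: plate controls were neutral wells for no effect and buffer without enzyme for full effect; nearly all actives have a fitted effect of over 40% in size; top concentration of the series not given in the record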
Target sequence (P25779 123-467 limits assumed): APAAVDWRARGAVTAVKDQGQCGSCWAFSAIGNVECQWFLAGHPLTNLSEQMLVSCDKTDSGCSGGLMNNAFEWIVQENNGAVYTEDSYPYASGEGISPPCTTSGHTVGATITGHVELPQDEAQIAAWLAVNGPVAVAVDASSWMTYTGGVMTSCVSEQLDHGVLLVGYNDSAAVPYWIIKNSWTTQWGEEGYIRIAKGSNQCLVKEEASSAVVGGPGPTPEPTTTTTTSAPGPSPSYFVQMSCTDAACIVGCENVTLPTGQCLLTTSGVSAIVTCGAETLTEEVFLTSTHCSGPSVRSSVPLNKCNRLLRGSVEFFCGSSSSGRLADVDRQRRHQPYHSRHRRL
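Z-FR-AMC hydrolysis (2 uM substrate) by cruzain (1.5 nM) monitored kinetically at ex 360/em 450 nm after 15 min room-temperature compound exposure; 0.01% Triton X-100, pH 5.5, 5 mM DTT.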
LASV entry inh: inhibitors of Lassa virus binding or cell entry; Potency, µM (top dose mostly 37.9 µM), without a hit: at the top dose activity change, negative = inhibition, usual class: inhibitors; Lassa virus pseudotype entry inhibition, cell reporter; control for the full effect not named in the record; 300,000 compounds, 1.2% hits; active means well fitted inhibition curve with a large enough effect; inconclusive means small, poorly fitted or top-dose-only effect, or effect the other way; inactive means flat fitted curve, though single readings scatter; tested in HEK293 cells; further: on the % scale 0 is the no-effect control and ±100 the full control effect; nearly all actives have a fitted effect of over 50% in size; luciferase read-out
StopGo reporter: FMDV 2A StopGo reporter, luciferase signal | 410,000 compounds, 1.2% hits | Potency, µM (top dose mostly 57.9 µM), without a hit: top-dose signal change, negative = less light | human cells with a luciferase reporter of 2A StopGo recoding; control for the full effect not named in the record | AID 1159524; active = well fitted falling curve with a large enough effect; inconclusive = small, poorly fitted or top-dose-only effect; inactive = no such curve, though single readings can be large or run the other way; tested in HEK293T cells; further: on the % scale 0 is the no-effect control and ±100 the full control effect; nearly all actives have a fitted effect of over 45% in size; luciferase light after 4 h
RE007 growth inh: less growth of the S. pombe RE007 Vpr strain; S. pombe RE007 Vpr strain, BacTiter-Glo ATP luminescence, 24 h; control for the full effect not named in the record; Potency, µM (doses to about 92.2 µM), inactives show top-dose activity change, negative = less growth; 360,000 compounds, 0.21% hits; active = well fitted falling curve with a large enough effect; inconclusive = small, poorly fitted or top-dose-only effect; inactive = no such curve, though single readings can be large or run the other way;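 further: on the % scale 0 is the no-effect control and ±100 the full control effect; nearly all actives have a fitted effect of over 50% in size; the assay follows cell death caused by Vpr and the record does not say whether a fall means rescue or toxicity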
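Fission yeast strain RE007, carrying one chromosomally integrated HIV-1 vpr copy, was seeded at OD 0.01 in PMG+AL medium with 23 nL pinned compound. After 24 h at 30 °C and 99% humidity, viability was read by BacTiter-Glo luminescence.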
NS1 inh: inhibitors of influenza NS1 protein function. 270,000 compounds, 0.4% hits. S. cerevisiae slowed by influenza A NS1, growth recovery by OD600. Potency, µM (titrated, usually from 46.1 µM), for inactives: at the top dose activity, positive = more growth. AID 2326; further: actives are rising curves; nearly all actives have a fitted effect of over 50% in size
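S. cerevisiae expressing influenza A NS1, grown in glucose, washed, then diluted 1:100 into pH 6.0 -URA galactose medium with 23 nl compound. Growth recovery read as OD600; NS1-free strain serves as control.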
SARS PLpro yeast: SARS-CoV PLP inhibition in yeast | S. cerevisiae expressing SARS-CoV PLpro, growth rescue; control for the full effect not named in the record | Potency, µM (top dose mostly 32.9 µM), for the others: at the top dose activity, positive = growth rescue | 330,000 compounds, 0.19% hits; further: 0% is about no effect; nearly all actives have a fitted effect of over 55% in size; growth read by luminescence after 48 h
Cruzain noTriton: cruzain (T. cruzi) inhibition without detergent. P25779. purified cruzain, Z-FR-AMC fluorescence, no detergent. Potency, µM, for the others: max response, negative = inhibition, most hits filed as inhibitors. 200,000 compounds, 2.3% hits; active means well fitted curve in the direction sought with a large enough effect; inconclusive means small, poorly fitted or top-dose-only effect, or another doubt; inactive means no such curve, though single readings can be large; an effect the other way counts as inactive or inconclusive;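 further: plate controls were enzyme without inhibitor for no effect and buffer without enzyme for full effect; nearly all actives have a fitted effect of over 40% in size; top concentration of the series not given in the record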
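Purified cruzain at 1.5 nM, pre-incubated 15 min with compound at room temperature in 100 mM sodium acetate pH 5.5, 5 mM DTT, 0.00005% Triton X-100. Reaction started with 2 uM Z-FR-AMC; AMC fluorescence increase over 60 s gives rate.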
MARV entry inh: inhibitors of Marburg virus binding or cell entry; Marburg virus pseudotyped entry inhibition, cell reporter; control for the full effect not named in the record; about a third of the inactives were read at about 46 µM; Potency, µM (top dose mostly 37.8 µM), without a hit: at the top dose activity change, negative = inhibition, hits mostly inhibitors; 300,000 compounds, 1.8% hits; active = well fitted inhibition curve with a large enough effect; inconclusive = small, poorly fitted or top-dose-only effect, or effect the other way; inactive = flat fitted curve, though single readings scatter; tested in HEK293 cells; about a fifth of its hits are not listed in these tables; further: on the % scale 0 is the no-effect control and ±100 the full control effect; luciferase read-out
* marks the source's active call; other numbers are inactive results; ? = inconclusive; . = not tested or not shown; & = joins results of further samples; [ ] = dose if it differs, or a comment. Unless noted, the call rests on the fitted dose curve; in most records, active means well fitted rising curve with a large enough effect; inconclusive means small, poorly fitted or top-dose-only effect; inactive means no such curve, though single readings can be large or run the other way. Potency means the concentration at half of the fitted maximal effect. Compounds as they come. Share with any hit: about 4.7%.

SMILES | Cruzain inh Det | LASV entry inh | StopGo reporter | RE007 growth inh | NS1 inh | SARS PLpro yeast | Cruzain noTriton | MARV entry inh
CCN1CCN(C(=O)N(c2ccccc2)c2ccccc2)CC1 | . | 0%[46.1 µM] | -11% | 11% | 3% | 0% | . | 15%[46.1 µM]
CS(=O)(=O)N1CCN(C(=O)NC2CCCCC2)CC1 | . | 6% | 10% | -19% | 1% | 3% | . | 37%[46.1 µM]
COc1cc(C(=O)N(Cc2cccnc2)c2nc3cc(C)c(C)cc3s2)cc(OC)c1OC | 0.4% | ? | -4% | . | . | . | -7% | .
COc1ccc(CCn2c(=O)c3cccnc3n(Cc3cccc([N+](=O)[O-])c3)c2=O)cc1OC | . | -1% | ? | -19% | . | -1% | . | 20%[46.1 µM]
C=CCn1c(Cc2cccs2)nnc1SCC(=O)Nc1cccc(OC)c1 | 6.6% | 8% | -12% | 17% | -5% | 4% | 3% | 3%
CN(Cc1ccccc1)C(=O)C1CCN(S(=O)(=O)Cc2ccccc2)CC1 | -2.3% | 0%[46.1 µM] | -5% | . | . | . | -15% | 18%[46.1 µM]
CC1CCN(CCCCOc2ccccc2-c2ccccc2)CC1 | -0.8% | 2.1µM* | 0% | -9% | -24% | -21% | -8% | 2.3µM*
CCCc1nnc(SCC(=O)Nc2cccc(C(F)(F)F)c2)o1 | . | 7% | ? | -18% | -11% | -7% | . | 15%[46.1 µM]
CCCn1c(CCC(=O)Nc2ccccc2OC)nc2cccnc21 | -1.4% | ? | -16% | . | . | . | -13% | -14%[46.1 µM]
COc1ccc(NC(=O)CN(C)C(=O)C(C)N2C(=O)c3ccccc3C2=O)cc1 (stereo unspecified) | . | 10% | -11% | 25% | . | -6% | . | -5%
Cc1ccccc1S(=O)(=O)c1c(C)cc(C)n(C)c1=O | . | -3% | 17% | -24% | . | 2% | . | 4%[46.1 µM]
COc1ccccc1N1CCN(/N=C\c2ccccc2)CC1 | . | . | 67%[activator] | 3% | 25% | 3% | . | .
Cn1cnc2c(NCc3ccco3)ncnc21 | . | . | -4% | -8% | 1% | 2% | . | .
COc1ccc(CCNC(=O)c2cc3c(=O)n(C)c4ccccc4c3n2C)cc1OC | . | 3% | ? | 0% | -7% | 3% | . | 2%[46.1 µM]
O=C1C(O)CCN1C1CCCCC1 (stereo unspecified) | . | ? | 12% | 27% | . | . | . | ?
O=C(N/N=C\c1cn[nH]c1-c1ccccc1)c1ccc([N+](=O)[O-])cc1 | -8.4% | 8% | -23% | 1% | -8% | 3% | -10% | ?
COc1ccc(OCCn2cnc(Cl)c2Cl)cc1 | . | 18%[46.1 µM] | 13% | -2% | -14% | 0% | . | 10%[46.1 µM]
COc1cc(C(c2sc3nc(C)nn3c2O)N2CCOCC2)cc(OC)c1OC (stereo unspecified) | -5.8% | . | -14% | 9% | -10% | 16% | -8% | .
Cc1cc(NC(=O)CSc2nnc3ccccn23)no1 | . | ? | 4% | -7% | -1% | 2% | . | -1%[46.1 µM]
COc1ccc(N2CCN(C(=O)c3c(Cl)cnn3C)CC2)cc1 | . | 7% | -15% | 2% | -1% | -5% | . | 22%
O=C(COc1ccccc1)N1CCc2ccccc21 | 1.2% | ? | 72%[activator] | 19% | -6% | -10% | 5% | -3%
O=C(CN1C(=O)c2ccccc2S1(=O)=O)c1ccc(OC(F)F)cc1 | . | 0.89µM* | ? | -20% | -2% | 3% | . | 1.3µM*
O=C(NS(=O)(=O)Oc1ccccc1F)OC[C@@H]1CCCN2CCCCC12 (stereo partly specified) | . | 7%[46.1 µM] | 5% | -13% | 12% | -2% | . | -3%[46.1 µM]
CC(c1ccco1)N(C(=O)c1ccc(F)cc1)c1ccccn1 (stereo unspecified) | . | 7% | 7% | 19% | . | 0% | . | 12%
COc1ccccc1/C(C)=N/NC(=S)NCc1ccccc1 | . | ? | -1% | 5% | 2% | 1% | . | ?
(list continues)
SMILES | Cruzain inh Det | LASV entry inh | StopGo reporter | RE007 growth inh | NS1 inh | SARS PLpro yeast | Cruzain noTriton | MARV entry inh
COc1ccc(NC(=O)Cn2c(=O)n(C(C)C)c(=O)c3oc4ccccc4c32)cc1Cl | -0.7% | -22%[46.1 µM] | -29% | . | . | . | 8% | .
COc1ccc(/C=N/NC2=NCCCCC2)c(OC)c1 | . | 3% | 19% | -12% | 1% | 3% | . | -3%
CC(=O)Nc1cccc(NC(=O)c2cc(-c3cccnc3)nc3ccc(Br)cc23)c1 | -2.0% | -12% | 0% | 9% | ? | 12% | ? | ?
CN1CCN(C(=O)c2ccc(F)c(F)c2)CC1 | . | . | 0% | 1% | ? | 18% | . | .
O=C(O)/C=C/C(=O)NNc1ncnc2ccccc12 | . | . | 20% | 9% | -1% | 5% | . | .
Cc1cc(C(F)(F)F)c(C#N)c(Sc2ccccc2)n1 | -5.1% | 1% | -29% | -7% | 8% | -1% | 0% | -9%
CCCN(CC(=O)Nc1ccccc1C)C(=O)C1CC(=O)N(c2ccc(C)cc2)C1 (stereo unspecified) | . | 0% | -6% | -14% | . | -1% | . | -4%[46.1 µM]
CCCCNC(=O)c1cn(C)c2ccc(S(=O)(=O)N3CCCC3)cc2c1=O | -0.9% | 10%[46.1 µM] | 1%&-9% | -16% | 23% | 6% | -2% | 3%&3%[46.1 µM]

Filtered by structure: those above with four or more nitrogen atoms (10)
SMILES | Cruzain inh Det | LASV entry inh | StopGo reporter | RE007 growth inh | NS1 inh | SARS PLpro yeast | Cruzain noTriton | MARV entry inh
COc1ccc(CCn2c(=O)c3cccnc3n(Cc3cccc([N+](=O)[O-])c3)c2=O)cc1OC | . | -1% | ? | -19% | . | -1% | . | 20%[46.1 µM]
C=CCn1c(Cc2cccs2)nnc1SCC(=O)Nc1cccc(OC)c1 | 6.6% | 8% | -12% | 17% | -5% | 4% | 3% | 3%
CCCn1c(CCC(=O)Nc2ccccc2OC)nc2cccnc21 | -1.4% | ? | -16% | . | . | . | -13% | -14%[46.1 µM]
Cn1cnc2c(NCc3ccco3)ncnc21 | . | . | -4% | -8% | 1% | 2% | . | .
O=C(N/N=C\c1cn[nH]c1-c1ccccc1)c1ccc([N+](=O)[O-])cc1 | -8.4% | 8% | -23% | 1% | -8% | 3% | -10% | ?
COc1cc(C(c2sc3nc(C)nn3c2O)N2CCOCC2)cc(OC)c1OC (stereo unspecified) | -5.8% | . | -14% | 9% | -10% | 16% | -8% | .
Cc1cc(NC(=O)CSc2nnc3ccccn23)no1 | . | ? | 4% | -7% | -1% | 2% | . | -1%[46.1 µM]
COc1ccc(N2CCN(C(=O)c3c(Cl)cnn3C)CC2)cc1 | . | 7% | -15% | 2% | -1% | -5% | . | 22%
CC(=O)Nc1cccc(NC(=O)c2cc(-c3cccnc3)nc3ccc(Br)cc23)c1 | -2.0% | -12% | 0% | 9% | ? | 12% | ? | ?
O=C(O)/C=C/C(=O)NNc1ncnc2ccccc12 | . | . | 20% | 9% | -1% | 5% | . | .

Arranged by count of non-hydrogen atoms (low to high): 3 of the compounds above.
SMILES | Cruzain inh Det | LASV entry inh | StopGo reporter | RE007 growth inh | NS1 inh | SARS PLpro yeast | Cruzain noTriton | MARV entry inh
COc1ccc(/C=N/NC2=NCCCCC2)c(OC)c1 | . | 3% | 19% | -12% | 1% | 3% | . | -3%
COc1ccccc1/C(C)=N/NC(=S)NCc1ccccc1 | . | ? | -1% | 5% | 2% | 1% | . | ?
COc1ccc(NC(=O)CN(C)C(=O)C(C)N2C(=O)c3ccccc3C2=O)cc1 (stereo unspecified) | . | 10% | -11% | 25% | . | -6% | . | -5%
